# Hsc70: Hsc70 inhibitors, probe displacement, primary screen, biochemical, fluorescence polarization (AID 568) | Heat shock cognate 71 kDa protein (Homo sapiens) | Hsc70 fluorescence polarization, probe displacement; higher % means a stronger effect; strong numbers were not always called active | 83,000 tested, under 10 active | one-dose displacement, % at 20 µM; IC50 in µM for titrated hits;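 active = displacement above 50% without optical interference and an IC50 on retest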;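 also: ATPase domain with a fluorescein-tagged ATP probe; 0% = vehicle and 100% = excess ADP; read after one hour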
# WNV NS2B-NS3 inh: inhibitors of WNV NS2B-NS3 protease, primary screen, biochemical, fluorogenic substrate; Genome polyprotein (West Nile virus), P06935; fluorogenic substrate Ex360/Em465; stronger effect = lower value; z-score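 (tested at a level between 10 and 100 µM)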; 65,000 tested, 0.18% active; AID 577, 2007;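 active = z-score at -3 or under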;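 also: score is relative to mean and spread of the compound wells of a plate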
# Target sequence (P06935 1371-1501 limits assumed): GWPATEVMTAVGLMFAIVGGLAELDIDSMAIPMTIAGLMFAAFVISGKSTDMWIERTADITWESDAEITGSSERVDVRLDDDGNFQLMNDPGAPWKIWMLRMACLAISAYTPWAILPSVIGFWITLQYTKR
# Target sequence (P06935 1502-1679 limits assumed): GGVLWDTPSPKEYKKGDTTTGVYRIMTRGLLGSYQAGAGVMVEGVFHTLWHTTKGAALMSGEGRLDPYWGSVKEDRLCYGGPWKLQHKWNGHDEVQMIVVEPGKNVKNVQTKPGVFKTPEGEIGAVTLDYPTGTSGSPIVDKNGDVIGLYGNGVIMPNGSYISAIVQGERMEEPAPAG
# MT1-MMP promoter: inhibitors of MT1-MMP promoter transcription, cell-based, luciferase reporter, luminescence (AID 618) | MT1-MMP promoter luciferase reporter cells, luminescence | calls from a first round at 10 µM; hits with a dose series show EC50 in µM | 87,000 tested, 0.62% active;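 active = over half of the reporter light lost at 10 µM or EC50 under 50 µM; inactive = the rest and hits that failed the dose series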;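 also: actives suppress MT1-MMP promoter-driven transcription so potencies describe inhibitors; HT1080 fibrosarcoma cells; overnight exposure; toxic or luciferase-blocking compounds were not removed from the actives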
# * marks the source's active call; other numbers are inactive results; i = inactive; . = not tested or not shown.
# Under each structure: Hsc70, WNV NS2B-NS3 inh, MT1-MMP promoter
CCOCCCNC(=O)C(c1ccc(C)cc1)N(Cc1ccc2c(c1)OCO2)C(=O)c1cnccn1 (stereo not given)
  0.5%, -0.19, i
Cc1ccc2nc(NC(=O)Cn3cc4c(n3)CCCCC4)sc2c1
  -1.8%, -0.24, i
CN1C(=O)CC(C(=O)O)SC1=Nc1ccc(F)cc1 (stereo not given)
  -0.6%, ., i
N#C/C(=C1\CCCN1)c1nc(-c2ccccc2)cs1
  -16%, 0.77, i
CC(=O)NCCOc1cccc2ccccc12
  -6.6%, -0.35, i
C=CCNc1nc(N(c2ccccc2)c2ccccc2)nc(-n2ccnc2)n1
  -9.4%, 0.29, i
CCCC(=O)N(CCc1ccccc1)Cc1nc2ccccc2c(=O)[nH]1
  -2.6%, -1.4, i
Cc1cccn2c(=O)c3cc(C#N)c(=NC(=O)c4ccc5c(c4)OCO5)n(CC(C)C)c3nc12
  11%, -0.52, i
CCOC(=O)c1c(CN2CCN(C)CC2)oc2ccc(OC)cc12
  4.1%, -0.88, i
O=c1nc(/C=C/c2cc([N+](=O)[O-])ccc2Cl)cc(C(F)(F)F)[nH]1
  5.1%, ., i
Cc1cccc(C(=O)O/N=C2/CC3CCC2(C)C3(C)C)c1 (stereo not given)
  -2.8%, ., i
Cc1c(C(=O)OC(C)C)nnn1-c1nonc1N
  0.1%, ., i
Cc1ccc(-c2csc3ncnc(-n4nc(C)cc4N)c23)cc1
  0.1%, -0.48, i
CCOC(=O)C1CCN(C(=O)c2ccccc2NC(C)=O)CC1
  -8.9%, 2.4, i
c1ccc(N2CCN(c3nc4cc5c(cc4s3)OCCO5)CC2)cc1
  0.5%, -0.54, i
O=C(CSc1nc2cc3c(cc2c(=O)n1CCC1=CCCCC1)OCO3)NCc1ccco1
  -9.2%, -0.62, i
CCc1[nH]nc2c1C(c1ccc(Br)s1)C(C#N)=C(N)O2 (stereo not given)
  0.9%, -0.23, i
COc1ccccc1NC(=O)c1ccc(S(=O)(=O)N2CCCC2)cc1
  2.6%, -0.86, i
COC(=O)c1c(C)[nH]c(C(C)=O)c1C
  -12%, 0.54, i
O=C(Oc1ccc(Cl)cc1)N1CCCCC1
  -2.8%, 1.9, i
COc1cccc(C(=O)OCCN(C)C(C)(C)C)c1
  -1.3%, 0.22, i
COc1ccc(C2C(C(C)=O)=C(O)C(=O)N2c2nccs2)cc1 (stereo not given)
  -0.2%, ., i
CCn1c(=O)n(CCOC)c(=O)c2c3c(sc21)CCCC3
  -5.5%, -1.2, i
Cc1cccc(CC2CC(=O)N(c3ncccn3)C2=O)c1 (stereo not given)
  3.4%, 0.08, i
COCC(=O)N1CCCc2ccccc21
  0.1%, -1.5, i
CCCC(=O)Nc1ccc(NC(=O)c2ccco2)cn1
  3.8%, -1, i
CCOc1ccc(C2CC(c3ccc(OC)cc3)n3ncnc3N2)cc1 (stereo not given)
  8.8%, -0.76, i
O=C1CSC(c2cn(-c3ccccc3)nc2-c2cc3ccccc3o2)N1Cc1ccccc1 (stereo not given)
  -0.3%, ., i
COc1cccc(/C(O)=C2/C(=O)C(=O)N(CCN3CCOCC3)C2c2cccnc2)c1 (stereo not given)
  -0.5%, 0.67, i
O=C(N1CCOCC1)N1CCN(S(=O)(=O)N2CCOCC2)CC1
  0.7%, -0.47, i
CSc1nc(C)nc2c1c(=O)n(C)c(=O)n2C
  -2.2%, -1.1, i
CCOc1ccc(NC(=O)CN2CCN(S(=O)(=O)c3ccc(Cl)cc3)CC2)cc1
  1.8%, 0.01, i
CC1CN(S(=O)(=O)c2cccc(C(=O)OCc3cc(=O)oc4cc(O)ccc34)c2)CC(C)O1 (stereo not given)
  -3.7%, -0.06, i
CCOC(=O)c1[nH]cnc1C(=O)O
  -5.3%, -0.44, i
Cc1cc(C(C)(C)C)cc(C)c1CC1=NCCN1
  -3.8%, 0.2, i
COCCNC(=O)c1cn(C)c(=O)c2cc(OC)c(OC)cc12
  -2.5%, -0.33, i
CC(C)n1c2ccccc2c2nc3ccccc3nc21
  -0.5%, -1.1, i
Cn1c(C(=O)N2CCN(c3nc4ccccc4s3)CC2)cc2sccc21
  4.2%, 1.2, i
CCN1C(=O)C(NC(C)=O)c2cc(OC)ccc21 (stereo not given)
  3.0%, -0.63, i
O=C(O)C1CCCCC1C(=O)Nc1cccc(Cl)c1Cl (stereo not given)
  -3.1%, ., i
Clc1ccc(-c2ccc(SCc3ccccn3)nn2)cc1
  1.3%, ., i
CCN1CCN(S(=O)(=O)c2ccc3ccccc3c2)CC1
  -1.6%, ., i
Cc1sc2ncnc(NCCCO)c2c1C
  -2.0%, -0.74, i
CCOc1ccc(C(=S)N2CCOCC2)cc1OC
  -1.1%, ., i
O=C1CC(C(F)(F)C(F)(F)C(F)(F)F)=Nc2ccccc2N1
  2.4%, ., i
Cc1ccc(-n2nc(C)c3c(C)c(CCC(=O)NCc4ccco4)c(C)nc32)cc1
  1.5%, 0.06, i
Cc1csc(NC(=O)CSc2nnc(CCNC(=O)c3ccc(Cl)c(Cl)c3)n2C)n1
  2.6%, ., i
O=C(CCc1nc2ccccc2c(=O)[nH]1)OCc1nnc(-c2ccccc2)o1
  -3.9%, -0.48, i
CC1(C)N([O-])C(c2ccccc2)=C[N+](=O)C1(C)C
  -9.4%, -0.37, i
CCc1nnc(NC(=O)c2ccc(-c3cccc(C(F)(F)F)c3)o2)s1
  -1.1%, 0.55, i
Cc1nc(C)c(C(=O)C2=C(O)C(=O)N(CCCN(C)C)C2c2ccco2)s1 (stereo not given)
  9.6%, -0.48, i
O=c1[nH]c2ccccc2cc1-c1noc(-c2cccnc2)n1
  -4.2%, -0.64, i
COc1cc2c(cc1OC)C1(NCC2)C(=O)Nc2ccccc21 (stereo not given)
  4.0%, -0.02, i
Nn1c(SCC(=O)Nc2ccc(F)c(F)c2)nnc1C1CCCCC1
  -1.2%, -2.3, i
Cc1ccc(S(=O)(=O)NCc2nc3ccccc3[nH]2)cc1
  5.4%, 0.23, i
COCCOC(=O)C1=C(C)NC2=C(C(=O)CC(C)(C)C2)C1c1cc2c(cc1Br)OCO2 (stereo not given)
  3.6%, 1.1, i
COc1cc(OC)c(NC(=O)Cn2cccc2)cc1Cl
  -3.2%, -0.43, i
Cc1ccc(NC(=O)c2cc(-c3cccc(O)c3)on2)cc1C
  0.7%, -0.26, i
COC(=O)Cc1cc(=O)n2[nH]cnc2n1
  1.5%, ., i
CC1CCN(C(=O)C(Cc2ccccc2)NS(=O)(=O)c2ccc3c(c2)oc(=O)n3C)CC1 (stereo not given)
  -3.4%, 0.69, i

# New compounds follow:
# Under each structure: Hsc70, WNV NS2B-NS3 inh, MT1-MMP promoter
O=C(Cn1cnc2c(nnn2-c2ccccc2)c1=O)NCCc1ccccc1
  1.4%, 0.58, i
COC(=O)Cn1c(CCS(=O)(=O)c2ccc(C)cc2)nc2ccccc21
  -3.3%, 0.25, i
CSc1ccc(S(=O)(=O)NC2CCCCCC2)cc1
  0.0%, -0.43, i
Cc1ccc(-n2ncc3c(NCc4ccc5c(c4)OCO5)ncnc32)c(C)c1
  0.3%, 0.38, i
O=S(=O)(NCC(c1cccnc1)N1CCN(c2ccc(F)cc2)CC1)c1cc(F)ccc1F (stereo not given)
  -6.7%, -0.32, i
COCc1c(C(=O)OC)nnn1-c1ccccc1
  -3.5%, ., i
COC(=O)c1ccc(Cl)c(NC(C)=O)c1
  -1.9%, -0.29, i
COc1cc(NS(=O)(=O)c2ccc(NC(=O)c3ccco3)cc2)nc(OC)n1
  -1.9%, 1.6, i
Cc1[nH]n(-c2ccccc2)c(=O)c1Sc1ccc(Cl)cc1
  -1.5%, ., i
Cc1c(OCc2ccccc2)c(=O)ccn1Cc1ccccc1
  0.6%, 0.44, i
CCSc1nnc(NC(=O)CSc2nc3c(c(=O)n2CC)SC(C)C3)s1 (stereo not given)
  -5.8%, -0.66, i
O=C(CN(Cc1cccs1)C(=O)CNC(=O)c1ccco1)NC1CCCCC1
  -2.7%, -0.52, i
Cc1ccc(S(=O)(=O)NC(CC(=O)O)c2ccccc2)cc1 (stereo not given)
  -0.1%, -0.9, i
Cn1c(CSc2nc3ccccc3s2)nc2ccccc21
  -10%, 1.5, i
Nc1nc(N2C(=O)C3CC=CCC3C2=O)nn1-c1ccccc1 (stereo not given)
  -4.9%, 0.54, i
Cc1ccc(Cn2nnc3c(=O)[nH]c(C4CCCN(C(=O)Nc5ccc(F)cc5)C4)nc32)cc1 (stereo not given)
  3.8%, -0.54, i
CCCCN(CCCC)S(=O)(=O)c1ccc2oc(C(=O)N3CCOCC3)c(C)c2c1
  3.5%, 2, i
CCn1c(NCc2ccccn2)nc2c1c(=O)n(C)c(=O)n2C
  0.2%, -0.11, i
O=C(NC1CCCCC1)N(Cc1ccccc1)Cc1ccco1
  3.2%, -0.23, i
CCOc1ccc(S(=O)(=O)Nc2ccc3c(c2)OCO3)c2cccnc12
  -6.0%, -0.68, i
CCCc1[nH]nc2c1C(c1ccc(OC)c(CSC3=NCCS3)c1)C(C#N)=C(N)O2 (stereo not given)
  0.0%, 0.14, i
Cn1c(=O)c2cc(S(=O)(=O)NC(Cc3ccccc3)C(=O)NCc3ccco3)ccc2n(C)c1=O (stereo not given)
  4.7%, -0.1, i
CC(C)CCN(C)C1CCN(C(=O)Nc2c(F)cccc2F)CC1
  3.2%, -0.65, i
CC(=O)N1CCN(S(=O)(=O)c2ccc(C)cc2)C1C(C)C (stereo not given)
  1.8%, -1.3, i
O=C(NC1CCCC1)C1c2ccccc2C(=O)N1C1CCCCC1 (stereo not given)
  -1.0%, -1.1, i
O=C(C1=C(O)C(=O)N(Cc2ccccc2)C1c1ccncc1)c1ccco1 (stereo not given)
  -7.3%, -0.5, i
CC(C)(C)NC(=O)c1cccc(NC(=O)c2ccco2)c1
  -1.2%, ., i
O=S(=O)(c1ccc(Br)s1)N1CCC(Cc2ccccc2)CC1
  -9.3%, ., i
CCOc1ccc(OCC)c(NC(=O)CSc2nc3c(c(=O)n(C)c(=O)n3C)n2C)c1
  -2.6%, -0.72, i
CC(C)NC(=O)C(Cc1ccccc1)N1C(=O)c2ccccc2C1=O (stereo not given)
  4.9%, ., i

# Filtered by structure, the compounds so far containing a CF3 group.
# Under each structure: Hsc70, WNV NS2B-NS3 inh, MT1-MMP promoter
O=c1nc(/C=C/c2cc([N+](=O)[O-])ccc2Cl)cc(C(F)(F)F)[nH]1
  5.1%, ., i
O=C1CC(C(F)(F)C(F)(F)C(F)(F)F)=Nc2ccccc2N1
  2.4%, ., i
CCc1nnc(NC(=O)c2ccc(-c3cccc(C(F)(F)F)c3)o2)s1
  -1.1%, 0.55, i

# Next part:
# Under each structure: Hsc70, WNV NS2B-NS3 inh, MT1-MMP promoter
O=C(CCSc1ccccc1)Nc1ccc(S(=O)(=O)N2CCOCC2)cc1
  3.6%, -0.13, i
O=C1c2ccccc2C(=O)N1c1nc(-c2cccs2)cs1
  -0.3%, 0.37, i
O=C(C1CCN(c2ccc(N3CCOCC3)nn2)CC1)N1CCc2ccccc2C1
  -4.1%, 0.2, i
COC(=O)c1ccc(C2/C(=C(/O)c3ccc(OC)cc3)C(=O)C(=O)N2c2cc(C)on2)cc1 (stereo not given)
  0.2%, -0.1, i
CCCCCn1c(NC2CCCCC2)nc2c1c(=O)[nH]c(=O)n2C
  2.4%, -1.1, i
CC(N)C12CC3CC(CC(O)(C3)C1)C2 (stereo not given)
  -3.2%, ., i
Cc1cc(Nc2ccccc2)n(-c2cccc(Cl)c2)n1
  -0.2%, ., i
Cn1nnnc1SCC(=O)Nc1ccccc1N1CCCCC1
  1.7%, -0.83, i
COCCSc1nnc(NC(=O)C2CCCCC2)s1
  -5.3%, 2.1, i
Cc1cccc(CS(=O)(=O)Cc2ccc(C(=O)NCC3CCCO3)o2)c1 (stereo not given)
  3.7%, 0.06, i
CSc1nnc2n(-c3ccccc3)c(=O)c3c4c(sc3n12)CCC4
  -3.7%, -0.8, i
Cc1c(S(=O)(=O)Nc2cccc(Cl)c2)c(=O)n(C)c(=O)n1C
  1.2%, 1.5, i
CN(Cc1cccs1)c1ncnc2sccc12
  -3.7%, 0.29, i
Cn1nc(-c2ccc(OCC(=O)NCC3CCCO3)cc2)c2ccccc2c1=O (stereo not given)
  -0.8%, 1, i
COc1ccc(NC(=O)N2CCN(S(C)(=O)=O)CC2)cc1OC
  -1.6%, -0.76, i
Brc1ccc(C2C3=C(Nc4ncnn42)c2ccccc2OC3c2ccncc2)cc1 (stereo not given)
  -2.2%, ., i
Cc1ccc2oc(=O)c3cc(C(=O)NCc4ccco4)sc3c2c1
  8.5%, -0.92, i
O=C(CSc1nnc(-c2cccs2)n1CC1CCCO1)c1cc2ccccc2o1 (stereo not given)
  -3.1%, -0.18, i
O=C(Nc1cccc(Cl)c1N1CCCC1)c1ccc(Br)o1
  -3.0%, -2, i
CCOc1cc(S(=O)(=O)Nc2ccc(CC)cc2)ccc1Cl
  2.2%, ., i
O=C(Oc1nsnc1N1CCOCC1)N1CCCC1
  -1.6%, ., i

# High-throughput results (PubChem BioAssay)

# Not all compounds are listed; count on the stated rates, not on these rows.
